YB-1 expr inh: inhibitors of YB-1 gene expression, primary screen, cell-based, fluorescence; U2OS, qRT-PCR YB-1 vs CDIP delta delta Cp, 16 h; active compounds read high; zero = DMSO, each unit about twofold; delta delta Cp (YB-1 minus CDIP) (test concentration not listed); 0.37% of 30,000 active; AID 434959, 2010;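 active means delta delta Cp rounded down to an integer at or above 3, about 3 SD of DMSO wells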;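 further: higher means less YB-1 transcript or more CDIP transcript relative to DMSO; stock transfer was 100 nL into about 100 µL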
MITF inhib: inhibitors of MITF, primary screen, MITF inhibitor project, cell-based, luminescence | inhibition, % (test concentration not listed) | TRPM1 promoter luciferase, 24 h | AID 2240, 2010 | 0.28% of 37,000 active;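 active means most replicates at 85% or more, or half of them and the mean; inconclusive means half reach 85% but not the mean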;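 further: human melanocyte line stably carrying TRPM1 promoter luciferase reporter; 0% = vehicle wells and 100% = a positive control; the first replicate is given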
Hedgehog inh: Hedgehog pathway signaling inhibitors, primary screen, luminescence, Shh-LIGHT2 cells, Gli-luciferase; 2.1% of 22,000 active; inhibition, % (test concentration not listed); Shh-LIGHT2 Gli-luciferase reporter, 30 h;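 active means replicate mean of 65% or more; inconclusive means mean lower but half the replicates past it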;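 further: pathway switched on by Shh-conditioned medium diluted 1 in 25 in low serum; 100 nL library stock added to about 40 µL; 0% = median of neutral wells and 100% = positive control level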
PD-1 reverse act: activators reversing PD-1 mediated T-cell inhibition, primary screen, luminescence, primary human CD4 T cells, PD-L1 beads. CellTiter-Glo 96 h. activation, % (no concentration beside the values). 29,000 tested, under 10 active;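 active means replicate mean of 50% or more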;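 further: 0% = median vehicle wells and 100% = positive control; 100 nL library stock added to about 50 µL; numbers are from one replicate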
Starred values were filed as active, the others as inactive. Only part of the results is shown. The share of hits here may be higher or lower than overall.

For Nc1nc(COc2cccc3cccnc23)nc(Nc2ccccc2)n1 the results were MITF inhib -66.5 and PD-1 reverse act -7.9.
Screening O=C(CCn1cnc2ccccc2c1=O)Nc1ccc(S(=O)(=O)N2CCCCC2)cc1 returned MITF inhib 14.3 and PD-1 reverse act 0.5.
Screening C[C@@H]1CCCCO[C@H](CN(C)S(C)(=O)=O)[C@@H](C)CN([C@H](C)CO)C(=O)c2cc(NC(=O)CCCN(C)C)ccc2O1 returned YB-1 expr inh -0.606, MITF inhib -2.0, Hedgehog inh -16.1 and PD-1 reverse act 0.9.
C[C@@H]1CN([C@H](C)CO)C(=O)c2cc(NS(=O)(=O)c3ccc(Cl)cc3)ccc2O[C@H]1CN(C)C(=O)Nc1cccc2ccccc12 was read as YB-1 expr inh -0.528, MITF inhib 11.3, Hedgehog inh -6.3 and PD-1 reverse act -0.7.
CNC[C@H]1Oc2ccc(NC(=O)C3CC3)cc2C(=O)N([C@@H](C)CO)C[C@H]1C was read as YB-1 expr inh 0.396, MITF inhib -2.2 and PD-1 reverse act 3.0.
C[C@H]1CN([C@@H](C)CO)C(=O)c2cccc(NC(=O)Nc3ccc(C(F)(F)F)cc3)c2O[C@@H]1CN(C)Cc1ccc(-c2ccccc2)cc1 was read as YB-1 expr inh -0.107, MITF inhib 13.6, Hedgehog inh -22.6 and PD-1 reverse act -4.7.
Screening Cc1noc(C)c1NC(=O)N(C)C[C@H]1Oc2ccc(NC(=O)Nc3cccc4ccccc34)cc2C(=O)N([C@@H](C)CO)C[C@H]1C returned YB-1 expr inh -0.243, MITF inhib -4.3, Hedgehog inh -20.6 and PD-1 reverse act 0.1.
C[C@H](CO)N1C[C@H](C)[C@@H](CN(C)C(=O)Nc2ccc(F)cc2)Oc2ccc(NC(=O)CCN3CCOCC3)cc2C1=O was read as YB-1 expr inh -0.302, MITF inhib 3.2, Hedgehog inh -15.3 and PD-1 reverse act -0.3.
`Cc1noc(C)c1NC(=O)N(C)C[C@@H]1Oc2ccc(NC(=O)Cc3cn(C)c4ccccc34)cc2CC(=O)N([C@@H](C)CO)C[C@@H]1C` gave YB-1 expr inh 0.553, MITF inhib -17.2 and Hedgehog inh -1.4.
For C[C@@H]1CN([C@H](C)CO)C(=O)Cc2cc(N(C)C)ccc2O[C@H]1CN(C)S(=O)(=O)c1ccc(F)cc1 the results were YB-1 expr inh 0.0294, MITF inhib 20.6 and Hedgehog inh 14.1.
For CCC(C)c1cc(N)nc2nc3ccccc3n12 (stereo not given) the results were YB-1 expr inh -0.405, MITF inhib 11.9, Hedgehog inh 20.2 and PD-1 reverse act 0.0.
For S=C(NCc1ccco1)N1CCN(c2ncccn2)CC1 the results were MITF inhib -11.7 and PD-1 reverse act 0.9.
O=C1c2ccccc2C2N1CCCN2S(=O)(=O)c1cccc(C(F)(F)F)c1 (stereo not given) was read as YB-1 expr inh -0.115, MITF inhib -6.3, Hedgehog inh 4.9 and PD-1 reverse act -0.3.
For O=C(CCCSc1nc(-c2ccco2)cc(C(F)(F)F)n1)NC1CCCC1 the results were YB-1 expr inh 0.299, MITF inhib -5.4, Hedgehog inh 19.3 and PD-1 reverse act -0.1.
Screening C[C@H]1CN([C@@H](C)CO)C(=O)c2cc(NS(C)(=O)=O)ccc2O[C@H]1CN(C)Cc1ccc2c(c1)OCO2 returned YB-1 expr inh -0.323, MITF inhib 1.4, Hedgehog inh -21.3 and PD-1 reverse act 0.0.

Quoted at random: three entries already listed.
For C[C@@H]1CN([C@H](C)CO)C(=O)Cc2cc(N(C)C)ccc2O[C@H]1CN(C)S(=O)(=O)c1ccc(F)cc1 the results were YB-1 expr inh 0.0294, MITF inhib 20.6 and Hedgehog inh 14.1.
For O=C(CCCSc1nc(-c2ccco2)cc(C(F)(F)F)n1)NC1CCCC1 the results were YB-1 expr inh 0.299, MITF inhib -5.4, Hedgehog inh 19.3 and PD-1 reverse act -0.1.
For Nc1nc(COc2cccc3cccnc23)nc(Nc2ccccc2)n1 the results were MITF inhib -66.5 and PD-1 reverse act -7.9.

Carrying on:
For COc1ccc(S(=O)(=O)Nc2ccc3c(c2)C(=O)N([C@@H](C)CO)C[C@H](C)[C@H](CN(C)S(=O)(=O)c2ccc(F)cc2)O3)cc1 the results were YB-1 expr inh 0.355, MITF inhib 5.0, Hedgehog inh 18.1 and PD-1 reverse act 0.1.
CCOC(=O)Nc1cccc(NC(=O)CC2c3ccccc3Oc3ccccc32)c1 was read as MITF inhib 89.0* and PD-1 reverse act -0.3.
Cc1noc(C)c1NC(=O)N(C)C[C@@H]1Oc2ccc(NS(=O)(=O)c3cn(C)cn3)cc2CC(=O)N([C@@H](C)CO)C[C@@H]1C was read as YB-1 expr inh -0.197, MITF inhib 2.5, Hedgehog inh -9.1 and PD-1 reverse act 0.9.
`Cc1cc(C(=O)Nc2cccc3c2O[C@@H](CN(C)Cc2ccc(-c4ccccc4)cc2)[C@H](C)CN([C@@H](C)CO)C3=O)n(C)n1` gave YB-1 expr inh -0.308, MITF inhib 48.9, Hedgehog inh 24.7 and PD-1 reverse act -0.7.
CC(C)NC(=O)N(C)C[C@H]1Oc2c(NC(=O)Nc3ccc(C(F)(F)F)cc3)cccc2C(=O)N([C@@H](C)CO)C[C@H]1C was read as YB-1 expr inh 1.55, MITF inhib 23.5, Hedgehog inh 21.0 and PD-1 reverse act -4.3.
`C[C@H]1CN([C@@H](C)CO)C(=O)Cc2cc(NC(=O)Cc3ccccc3)ccc2O[C@@H]1CN(C)S(=O)(=O)c1ccc(F)cc1` gave YB-1 expr inh 0.129, MITF inhib 6.2, Hedgehog inh 19.9 and PD-1 reverse act 1.4.
CSc1nc(N)nc(SCC(=O)Nc2ccc(Cl)cc2)c1C#N was read as MITF inhib 25.9 and PD-1 reverse act -2.2.
`COc1ccc(NC(=O)N(C)C[C@@H]2Oc3c(NC(=O)C4CCOCC4)cccc3C(=O)N([C@H](C)CO)C[C@@H]2C)cc1` gave YB-1 expr inh -0.0687, MITF inhib -3.1, Hedgehog inh 11.8 and PD-1 reverse act 1.0.
COc1ccc(CN(C)C[C@@H]2OCCCC[C@@H](C)Oc3ccc(NS(=O)(=O)c4ccc(F)cc4)cc3C(=O)N([C@H](C)CO)C[C@@H]2C)cc1 was read as YB-1 expr inh -0.132, MITF inhib -4.2 and Hedgehog inh 8.8.
Screening CC(=O)Nc1nc(C2CC2)cc(-c2ccccc2)c1C#N returned YB-1 expr inh -0.0048, MITF inhib 4.5, Hedgehog inh -81.9 and PD-1 reverse act -1.9.
Cc1noc(C)c1NC(=O)Nc1cccc2c1O[C@H](CN(C)S(=O)(=O)c1ccc(F)cc1)[C@H](C)CN([C@H](C)CO)C2=O was read as YB-1 expr inh -0.226, MITF inhib -18.0, Hedgehog inh -15.0 and PD-1 reverse act -0.1.
Cc1ccccc1NC(=O)CN(c1ccc(Cl)c(Cl)c1)S(C)(=O)=O was read as MITF inhib 5.7 and PD-1 reverse act 0.5.
Screening COc1ccc(CN(C)C[C@@H]2Oc3c(NC(=O)Nc4ccc(C(F)(F)F)cc4)cccc3C(=O)N([C@@H](C)CO)C[C@H]2C)cc1 returned YB-1 expr inh -0.257, MITF inhib 54.8, Hedgehog inh 15.1 and PD-1 reverse act -8.0.
Screening O=C(COc1ccc(I)cc1)Nc1cc(C(=O)O)cc(C(=O)O)c1 returned MITF inhib -11.0 and PD-1 reverse act 1.2.
`C[C@]12C=CC(=O)C=C1CC[C@@H]1[C@@H]2C(=O)C[C@@]2(C)[C@H]1CC[C@]2(O)C(=O)CO` gave YB-1 expr inh 1.09, MITF inhib -16.1, Hedgehog inh 1.5 and PD-1 reverse act 4.0.
`C[C@@H]1CN([C@H](C)CO)C(=O)c2cccc(NC(=O)NC3CCCCC3)c2O[C@H]1CN(C)Cc1ccccc1` gave YB-1 expr inh -0.226, MITF inhib 54.4, Hedgehog inh 21.0 and PD-1 reverse act -6.0.
For NC(=O)c1ccccc1NCC(=O)c1ccc(F)cc1 the results were YB-1 expr inh -0.151, MITF inhib -7.9, Hedgehog inh -8.2 and PD-1 reverse act 0.8.
Cc1cc(C(=O)CSc2ncnc3sc4c(c23)CCCC4)c(C)n1Cc1ccco1 was read as YB-1 expr inh -0.202, MITF inhib -2.6, Hedgehog inh inconclusive and PD-1 reverse act 0.2.
Screening CCc1ccc(-c2nc3cc(NC(=O)COc4ccc([N+](=O)[O-])cc4)ccc3o2)cc1 returned MITF inhib -35.6 and PD-1 reverse act -1.1.
Cc1ccc(S(=O)(=O)Nc2ccc3c(c2)C(=O)N([C@@H](C)CO)C[C@@H](C)[C@H](CN(C)Cc2ccccc2)O3)cc1 was read as YB-1 expr inh 0.211, MITF inhib -5.6 and Hedgehog inh -0.8.
Screening Cc1ccc(Oc2ccccc2)c(NC(=O)c2ccccc2)c1 returned YB-1 expr inh -0.4, MITF inhib 6.3 and PD-1 reverse act -0.7.
For Cc1noc(C)c1S(=O)(=O)N(C)C[C@@H]1Oc2c(NC(=O)C3CCCCC3)cccc2C(=O)N([C@@H](C)CO)C[C@@H]1C the results were YB-1 expr inh 0.493, MITF inhib -0.2, Hedgehog inh -48.6 and PD-1 reverse act 1.7.
Screening CC(=O)C1=C(C)N(Cc2ccco2)C(=O)C1(NC(=O)C1CCCCC1)C(F)(F)F (stereo not given) returned MITF inhib -4.7 and PD-1 reverse act 1.0.
For Cn1c(SCC(=O)Nc2ccccc2F)nnc1-c1ccc(Br)cc1 the results were MITF inhib -8.4 and PD-1 reverse act -0.1.
`Cc1ccc(CCC(=O)Nc2cc(C(F)(F)F)ccc2Cl)o1` gave MITF inhib -8.7 and PD-1 reverse act -1.9.
COc1ccc(S(=O)(=O)N(C)C[C@@H]2Oc3c(NC(=O)C4CCOCC4)cccc3C(=O)N([C@@H](C)CO)C[C@@H]2C)cc1 was read as YB-1 expr inh -0.275, MITF inhib 2.2, Hedgehog inh -31.9 and PD-1 reverse act -0.2.
Screening O=C(CSc1nc2ccccc2[nH]1)Nc1cccc(Cl)c1 returned MITF inhib -31.5 and PD-1 reverse act -3.5.
`C[C@@H]1CN([C@H](C)CO)C(=O)Cc2cc(NC(=O)CCC(F)(F)F)ccc2O[C@H]1CN(C)S(C)(=O)=O` gave YB-1 expr inh 0.284, MITF inhib -0.2, Hedgehog inh 8.1 and PD-1 reverse act 1.1.
Screening Cc1c(Br)ccc(NC(=O)CSc2nnc(-c3ccccc3)n2-c2ccccc2)c1C returned MITF inhib 12.8 and PD-1 reverse act 0.0.
For C[C@H]1CN([C@@H](C)CO)C(=O)c2cccc(NC(=O)Nc3ccc(F)cc3)c2O[C@@H]1CN(C)C(=O)Nc1ccc2c(c1)OCO2 the results were YB-1 expr inh 1.42, MITF inhib -16.0 and Hedgehog inh 51.8.
Screening Cc1cc(NC(=O)NCCCN2CCN(C3CCCCC3)CC2)ccc1Cl returned MITF inhib -16.8 and PD-1 reverse act 3.1.
Screening CC(C)NC(=O)Nc1ccc2c(c1)CC(=O)N([C@@H](C)CO)C[C@H](C)[C@@H](CN(C)Cc1ccc3c(c1)OCO3)O2 returned YB-1 expr inh -0.149, MITF inhib -20.8, Hedgehog inh -9.3 and PD-1 reverse act 2.0.
For COc1ccc(-c2coc3c(OC)c(OC)cc(OC4OC(CO)C(O)C(O)C4OC4OCC(O)C(O)C4O)c3c2=O)cc1 (stereo not given) the results were YB-1 expr inh 0.285, MITF inhib -5.9, Hedgehog inh 5.8 and PD-1 reverse act 0.1.
C[C@@H]1CN([C@H](C)CO)C(=O)c2cccc(NS(=O)(=O)c3ccccc3)c2O[C@@H]1CN(C)S(C)(=O)=O was read as YB-1 expr inh -0.458, MITF inhib -5.5 and Hedgehog inh -18.3.
For Cc1cc(I)cc(C)c1NC(=O)CSc1n[nH]c(-c2ccc(Cl)cc2)n1 the results were MITF inhib 13.9 and PD-1 reverse act -1.4.
`O=C(CCc1ccccc1)c1c(O)cc(O)cc1O` gave YB-1 expr inh -0.162, MITF inhib -8.5, Hedgehog inh 3.7 and PD-1 reverse act 0.8.
For C[C@H](CO)N1C[C@H](C)[C@@H](CN(C)Cc2ccc3c(c2)OCO3)Oc2ccc(N(C)C)cc2C1=O the results were YB-1 expr inh 0.164, MITF inhib -4.9, Hedgehog inh -16.3 and PD-1 reverse act -0.4.
Screening CC(=O)Nc1ccccc1NC(=O)COc1cc(Cl)c(Cl)cc1Cl returned MITF inhib 44.3 and PD-1 reverse act 1.1.
Cc1ccc(C(=O)Oc2ccc(C(=O)CSc3nc4ccccc4o3)cc2)cc1 was read as MITF inhib -65.1 and PD-1 reverse act -7.9.
Screening C[C@@H]1CN([C@@H](C)CO)C(=O)c2cccc(NS(=O)(=O)c3ccc(F)cc3)c2O[C@@H]1CN(C)Cc1ccc2c(c1)OCO2 returned YB-1 expr inh -0.662, MITF inhib -10.8, Hedgehog inh -9.1 and PD-1 reverse act -1.6.
For CC(C)(Oc1ccc(Cl)cc1)C(=O)NCc1ccccn1 the results were MITF inhib 2.5 and PD-1 reverse act -2.5.
C[C@H](CO)N1C[C@H](C)[C@@H](CN(C)CC2CCCCC2)Oc2c(NS(=O)(=O)c3ccccc3)cccc2C1=O was read as YB-1 expr inh -0.566, MITF inhib -3.5, Hedgehog inh -24.3 and PD-1 reverse act 1.5.

Screening results as filed in PubChem.
